# From PubChem BioAssay
# D2 ag = Beta-Arrestin HTS for Positive Allosteric Modulators of the Human D2 Dopamine Receptor: Agonists; D(2) dopamine receptor (Homo sapiens), P14416; DiscoveRx PathHunter D2 beta-arrestin, luminescence, 90 min; 100% = 57 uM dopamine signal; activation, % (concentration not given with the values); hit rate 0.084% among 360,000; in the data active = activation above about 40%; inconclusive = about 15% to 40%; inactive = below about 15%; also: compound concentration not given in the record; the text of the record calls up to 30% inactive
# Target sequence (P14416 whole entry, looked up): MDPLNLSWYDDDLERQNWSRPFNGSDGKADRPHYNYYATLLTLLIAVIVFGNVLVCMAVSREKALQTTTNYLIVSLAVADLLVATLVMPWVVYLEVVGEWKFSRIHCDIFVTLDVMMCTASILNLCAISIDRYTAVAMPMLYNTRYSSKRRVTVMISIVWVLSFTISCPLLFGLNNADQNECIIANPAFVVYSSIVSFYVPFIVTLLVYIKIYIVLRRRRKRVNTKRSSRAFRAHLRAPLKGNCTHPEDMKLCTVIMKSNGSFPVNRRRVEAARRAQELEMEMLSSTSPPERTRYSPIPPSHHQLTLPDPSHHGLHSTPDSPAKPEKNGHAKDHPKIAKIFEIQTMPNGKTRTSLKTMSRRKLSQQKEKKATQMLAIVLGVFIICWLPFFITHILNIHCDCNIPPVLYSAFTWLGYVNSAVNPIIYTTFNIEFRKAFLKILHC
#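 Agonist mode: compounds alone added to overnight-plated D2 PathHunter cells for 90 min at 37 C, with 57 uM final dopamine (EC100) defining full response. Beta-arrestin recruitment detected by chemiluminescent reagent, read after 1 h at ambient temperature.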
# ClpP mod = qHTS Assay for Activators of ClpP | purified B. subtilis ClpP, FRET peptide cleavage, 20 min | Potency, µM (titrated, usually from 57.5 µM), for inactives: at the highest dose activity change, negative = active | hit rate 1.9% among 340,000; active = well fitted falling curve with a large enough effect; inconclusive = small, poorly fitted or top-dose-only effect; inactive = no such curve, though single readings can be large or run the other way; also: potency is read from the fitted curve at half-maximal effect; the source files actives as falling curves though it sought activators and does not explain the sign; nearly all actives have a fitted effect of over 65% in size; many hits overshoot -100%
# Target sequence (P80244 whole entry, looked up): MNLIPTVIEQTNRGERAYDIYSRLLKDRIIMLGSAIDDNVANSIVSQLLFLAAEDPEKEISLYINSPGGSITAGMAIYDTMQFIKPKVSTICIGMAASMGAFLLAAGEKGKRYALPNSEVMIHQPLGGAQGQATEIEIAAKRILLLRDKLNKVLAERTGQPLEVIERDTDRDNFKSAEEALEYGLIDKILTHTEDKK
#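 ClpP 10 microg/mL final, pH 8 Tris/KCl buffer with BSA, glycerol, Tween-20; compound pinned in; FRET-FV substrate; RT 20 min; Ex320/Em430; ΔFRET vs ADEP 5.8 microM, DMSO, no enzyme.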
# gsp agonist = qHTS for Agonist of gsp, the Etiologic Mutation Responsible for Fibrous Dysplasia/McCune-Albright Syndrome: qHTS; hit rate 0.13% among 340,000; Potency, µM (series often up to 76.9 µM), without a hit: at the top dose activation (cAMP increase), most hits filed as activators; gsp mutant cells, cAMP HTRF, 30 min; control for the full effect not named in the record; active = well fitted activation curve with a large enough effect; inconclusive = small, poorly fitted or top-dose-only effect, or another doubt; inactive = no such curve, though single readings can be large or run the other way; cell line not stated here;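 also: phosphodiesterase inhibitor Ro 20-1724 added with compounds to block cAMP breakdown; potency is read from the fitted curve at half-maximal effect; nearly all actives have a fitted effect of over 60% in size; about a fifth of the inactives were tested at one dose only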
#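 Cells stably selected in G418 were plated at 2000/well, grown 16-24 hr, then given compounds in DMSO with the PDE inhibitor […] (300 uM solution added) for 30 min at 37C; cAMP was read by HTRF.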
# Menin-MLL FL inh = qHTS Assay for Inhibitors Targeting the Menin-MLL Interaction in MLL Related Leukemias: Competition With Fluorescein Labeled MLL-derived Peptide | Fluorescence polarization, fluorescein-MLL peptide displacement from menin | FP activity change, % at 61.4 µM | 290,000 tested, under 10 active; inconclusive = falling polarisation curve, or a change in total fluorescence; inactive = total fluorescence flat and polarisation flat or rising; no compound was filed as active; the % refers to the polarisation; negative = inhibition;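 also: % of control where 0% means no effect; inhibitors lower the polarisation; unlabelled MLL peptide was the positive control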
# Sfp inh = qHTS Assay for Inhibitors of Bacillus subtilis Sfp phosphopantetheinyl transferase (PPTase); 4'-phosphopantetheinyl transferase ffp (Bacillus subtilis), Q9F4F7; Biochemical Sfp PPTase activity, qHTS; Potency, µM, for the others: max response, negative = inhibition, usual class: inhibitors; hit rate 3.5% among 310,000; AID 1490, 2009; active = well fitted inhibition curve with a large enough effect; inconclusive = small, poorly fitted or top-dose-only effect, or another doubt; inactive = no such curve, though single readings can be large or run the other way;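 also: the enzyme is Sfp with the accession as filed and its product quenches rhodamine fluorescence; potency is read from the fitted curve at half-maximal effect; 0% = enzyme reaction without inhibitor and -100% = no enzyme wells; top concentration of the series not given in the record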
#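 Reaction rates are the 30-min fluorescence difference (ex 525, em 598 nm) in wells containing 15 nM Sfp, 5 uM rhodamine-CoA and 12.5 uM BHQ-2-YbbR at pH 7.6 with 10 mM MgCl2.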
# PINK1 expr mod = A Quantitative High throughput Screen to Identify Chemical Modulators of PINK1 Expression. PINK1 immunofluorescence, high-content cytometry, 24 h. Potency, µM (top dose mostly 76.6 µM), without a hit: top-dose activation (PINK1 increase), most hits filed as activators. hit rate 0.2% among 410,000. AID 624263, 2012; active = well fitted activation curve with a large enough effect; inconclusive = small, poorly fitted or top-dose-only effect; inactive = flat fitted curve, though single readings scatter; cell line not stated here;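 also: potency is read from the fitted curve at half-maximal effect; % of control where 0% means no effect; nearly all actives have a fitted effect of over 65% in size; a mitochondrial uncoupler was the plate control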
#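 Measures PINK1 amount and localization on or inside mitochondria by immunofluorescence. Stable cells get compounds at 5 concentrations for 24 hours before fixation and staining; CCCP controls included.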
# gsp antag = qHTS for Antagonists of gsp, the Etiologic Mutation Responsible for Fibrous Dysplasia/McCune-Albright Syndrome: qHTS; gsp-mutant cells, cAMP HTRF, 30 min; control for the full effect not named in the record; Potency, µM (doses to about 76.9 µM), for inactives: top-dose activity change, negative = inhibition, usual class: inhibitors; hit rate 0.4% among 340,000; AID 624288, 2012; active = falling curve of any shape with a large fitted effect; inconclusive = falling curve, mostly with a smaller effect; inactive = flat or rising curve; cell line not stated here;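 also: intracellular cAMP measured with PDE inhibitor Ro 20-1724 present during compound exposure; potency is read from the fitted curve at half-maximal effect; % is scaled to controls: 0 for no effect and ±100 for the full control effect; nearly all actives have a fitted effect of over 65% in size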
#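 Cells, 2000/well, grown 16–24 h in DMEM 10% FBS with 0.5 mg/ml G418, then compounds plus […] (300 uM addition stock), 30 min at 37C. cAMP read by HTRF (cAMP-d2 and anti-cAMP antibody-K in lysis buffer) after 30 min RT.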
# Numbers without * were called inactive; ? = inconclusive; . = not tested or not shown; & = joins results of further samples; [ ] = dose if it differs, or a comment. Not a hit list; about 5.1% have a hit in one of these screens.
SMILES,D2 ag,ClpP mod,gsp agonist,Menin-MLL FL inh,Sfp inh,PINK1 expr mod,gsp antag
Cc1cc(C)c(NC(=O)COC(=O)Cc2ccsc2)c(C)c1,-6.1,1.4%,?,0.2,0.3%,-1.6%,11.3%
CC1CC(C)CN(C(=O)CNC(=O)c2sc3ccccc3c2Cl)C1 (stereo unspecified),-0.5,-6.1%,1.0%,.,.,0.9%,-10.5%
O=C(NCCCN1CCOCC1)c1ccc(/C=C2\Oc3ccccc3N(Cc3ccccc3F)C2=O)cc1,2.9,-9.2%,-22.6%,-1.7,-17.8%,-0.9%,-1.4%
Cc1cc(C)n2c(SCc3c(C)noc3C)nnc2n1,-4.0,?,?,0.9,10.7%,-2.0%,-6.3%[15.4 µM]
CCC(=O)c1ccc(OCC(O)Cn2nc(C)c(Br)c2C)cc1 (stereo unspecified),-1.6,1.1%,-6.0%,0.6,14.1%,2.7%,-2.9%
COc1ccccc1C(=O)Nc1nc(C)cc(C)n1,-2.7,.,-1.4%[15.4 µM],.,.,1.4%,2.2%
O=C(NCc1cccs1)N[C@@H](Cc1ccccc1)C(=O)O,0.4,0.4%,-30.5%[inhibitor],2.2,20.4%,0.9%[38.3 µM],1.1%
O=C(NCc1ccco1)C1CCCN(c2nnc(-n3cccc3)s2)C1 (stereo unspecified),-1.7,-3.5%,-19.3%,.,4.1%,0.4%,-4.0%
COCCN(CC(=O)Nc1cccc(C)c1C)C(=O)c1ccc(S(=O)(=O)N2CCOCC2)cc1,-4.4,-12.5%,-24.4%,.,.,-2.1%,8.0%
Cc1cccc(NC(=O)c2nc[nH]c2C(=O)NC2CCN(C(=O)OC(C)(C)C)CC2)c1,-0.5,24.3%,.,.,.,1.1%,5.1%
Cc1nc(SCC(=O)NNC(=O)c2ccc(F)cc2)c2ccccc2n1,-8.8,-2.1%,?,.,.,0.2%,13.0%
O=C(NC(=S)Nc1nc(-c2ccccc2)cs1)c1cccnc1,-2.0,.,-7.5%[15.4 µM],0.1,?,0.6%,1.1%
O=C(COC(=O)C1CC1)c1c[nH]c2ccccc12,1.6,-0.3%,-3.6%,-1.3,2.2%,0.4%[38.3 µM],2.2%
COc1ccc(Cc2nnc(NS(C)(=O)=O)s2)cc1,-0.4,0.9%,-37.7%[inhibitor],3.5,0.2%,4.9%[38.3 µM],-2.3%
CN(C)CCCN(C(=O)c1ccc([N+](=O)[O-])s1)c1nc2cc3c(cc2s1)OCCO3,13.3,0.5%,-0.6%,1.5,2.3%,-1.2%,-3.9%
CC(=O)Nc1ccccc1OCc1nnc(-c2cccs2)o1,-3.4,-4.4%,-14.4%,11.5,3.6%,-0.6%,-11.4%
c1ccc(C[C@H]2CN=C(Nc3ccccc3)N2CCCC2CCCCC2)cc1,-1.3,0.1%,-27.2%,.,.,16.1%,7.3%
O=C(C1CCCN(c2ncnc3c2nc2n3CCCCC2)C1)N1CCN(c2ccc(Cl)cc2)CC1 (stereo unspecified),5.1,-1.8%,-38.4%[inhibitor],-3.6,-21.1%,3.7%,?
O=C(c1cc(-c2cccs2)on1)N1CCCc2ccccc21,5.6,0.9%,0.5%,-0.1,-12.1%,-1.2%,-4.5%
CCOC(=O)C1CCN(C(=O)COC(=O)/C=C/c2ccccc2)CC1,-2.6,-2.5%,-44.2%[inhibitor],.,.,1.2%,1.6%
CCN(CC)CC(C)OC(=O)c1ccccc1Cl (stereo unspecified),-1.8,-1.7%,-13.4%[15.4 µM],-0.5,19.1%,-0.6%,3.2%
COc1ccc2[nH]c(=O)c(CNc3ccc(C)c(C)c3)cc2c1,-1.8,-26.0%,?,-3.3,50.1µM*,-1.2%,2.7%
CCN(CC)S(=O)(=O)c1cc(NC(=O)C2CCN(c3ncnc4sc(C)c(C)c34)CC2)ccc1Cl,-0.9,?,-10.0%[15.4 µM],.,.,0.5%,-19.9%
O=C(CCN1CCCCC1)NCNC(=O)CCN1CCCCC1,-0.8,0.7%,-1.7%,3.2,17.0%,4.4%,8.2%
CC(C)=CCCC(C)NC(=O)NC1CCCCC1 (stereo unspecified),-1.7,-1.5%,12.8%,0.2,-9.8%,2.1%,1.0%
O=C(c1cccc(F)c1)N1CCC2(CCN(Cc3ccccc3)CC2)CC1,.,.,.,-0.2,22.8%,-0.5%,.
Cc1cc(Cl)ccc1-c1nc(NCCN(C)C)nc2ccsc12,4.7,4.5%,.,.,.,0.0%,.
Cn1cnc([N+](=O)[O-])c1S(=O)(=O)c1ccc(Cl)cc1,2.2,.,4.4%[15.4 µM],1.7,-23.0%,2.0%,10.0%
O=C(C1CC(=O)N(c2ccc(Cl)cc2)C1)N1CCC(c2nc3ccccc3[nH]2)CC1 (stereo unspecified),-0.6,1.8%,?,.,.,5.4%,1.3%
COC(=O)Cc1ccc(N(Cc2ccccc2F)S(=O)(=O)c2ccc(Br)cc2)cc1,-0.2,-0.8%,16.7%,5.7,-9.3%,1.0%,?
Cc1cnc(NC(=O)CSc2nnc(C)s2)s1,-2.4,-3.4%,28.1%,2.9,11.4%,.,-10.1%
Cc1csc(N)n1,3.4,-0.5%,.,2.9,?,-0.4%,-2.7%
COc1cc(C(=O)Nc2nc(C)c(Cc3ccc4c(c3)OCO4)s2)cc(OC)c1OC,-3.4,?,-13.5%,0.7,-86.0%,4.6%,6.8%
CN=C(Nc1ccccc1OC)SC1CC(=O)N(c2ccc(C(=O)OC)cc2)C1=O (stereo unspecified),5.0,-0.3%,-33.6%,-0.9,-2.5%,0.7%,-0.1%
Cc1onc(-c2ccccc2)c1C(=O)Nc1sc2c(c1C#N)CCC2,-3.3,-1.1%,-7.9%,11.3,-82.8%,13.7%[38.3 µM],?
CC1CN(C(=O)COC(=O)c2ccc(O)cc2)CC(C)O1 (stereo unspecified),-1.9,.,-16.6%[15.4 µM],7.2,3.8%,-2.6%,10.8%
COCCNC(=S)Nc1ccc(Cl)c(Cl)c1,0.5,0.7%,3.4%,-1.1,18.5%,2.5%,6.5%
CN(C)S(=O)(=O)c1ccc(NC(=O)Cc2ccc(S(=O)(=O)N3CCOCC3)s2)cc1,-0.9,.,-28.5%,-6.8,-0.8%,5.1%,-6.1%
COc1ccc(C2CC(c3cccs3)=NN2C(=O)c2ccco2)cc1OC (stereo unspecified),5.0,.,-45.3%[inhibitor],1.2,-9.3%,0.4%,-1.0%
CNc1ccc2nnc(C(F)(F)C(F)(F)C(F)(F)F)n2n1,-0.3,.,-2.6%,-0.6,-5.5%,6.2%,10.9%
O=c1[nH]c(CS(=O)(=O)c2ccccc2)nc2ccccc12,-1.3,-13.5%,10.9%,0.3,8.5%,-0.4%,6.2%
O=C(Cn1[nH]c(=O)c2ccccc2c1=O)OCC(=O)N(Cc1ccccc1)Cc1ccccc1,-4.8,-3.4%,-18.5%,0.0,12.9%,5.0%,-2.4%
Cc1cc(NC(=O)COC(=O)C2CSC3(C)CCC(=O)N23)ccc1Br (stereo unspecified),0.0,-1.8%,-20.9%,.,.,-0.8%,0.1%
CC1CCc2sc(C(=O)N3CCC(C(N)=O)CC3)cc2C1 (stereo unspecified),-0.9,0.3%,?,.,.,0.2%,12.6%
CCOC(=O)c1ccc(Nc2nnc(C(C)(C)C)c(=O)[nH]2)cc1,-0.5,0.2%,2.1%,1.6,-7.8%,25.1µM*,39.8µM*
CC(=O)OCC(=O)C1(O)CCC2C3CCC4=CC(=O)CCC4(C)C3(Cl)C(O)CC21C (stereo unspecified),1.9,.,28.6%,.,.,11.8%,4.5%
COc1ccc(C(C[N+](=O)[O-])c2c(C)cc3ccccn23)cc1 (stereo unspecified),-6.3,.,7.1%[15.4 µM],14.0,5.6%,3.0%,2.5%
COc1cc2c(cc1[N+](=O)[O-])-c1ccccc1C2,6.4,.,-6.3%,.,.,?,7.7%
COC(=O)CC1[C@@]2(C)C[C@@]34OC5(C)OC6(CC[C@@]7(C)C(c8ccoc8)OC(=O)C(C(C)=O)C7[C@]6(O5)C(O)[C@@]3(O)C2O)[C@]14C (stereo partly specified),.,.,.,1.2,-4.7%,-0.5%,.
FC(F)(F)c1cccc(CN2CCC(c3cc(-c4cccs4)n[nH]3)CC2)c1,3.0,.,14.9%[15.4 µM],0.5,6.7%,9.4%,1.9%
CCOC(=O)/C(C#N)=C1\CC2CCC1(C)C2(C)C (stereo unspecified),2.7,.,-18.9%[15.4 µM],5.0,39.8µM*,-1.3%,.
Cc1oc2ccc(OC(=O)c3cccs3)cc2c1C(=O)OC(C)C,-0.2,-0.9%,4.4%,-0.8,?,1.9%,-1.0%
CCOc1ccccc1/C=C(/NC(=O)c1ccccc1)C(=O)N(CC)CC,-2.9,-1.5%,10.7%[15.4 µM],-1.0,9.3%,-2.4%,5.0%
Cc1ccc(C)c(S(=O)(=O)N2CCN(C(=O)Cc3ccsc3)CC2)c1,-5.5,0.3%,-0.7%,-1.2,2.7%,-1.8%,0.8%
COc1ccc([N+](=O)[O-])cc1NC(=O)C(C)OC(=O)C1CCC1 (stereo unspecified),0.7,-1.9%,-7.0%,.,.,2.0%,2.9%
CCOc1cccc(C(=O)Nc2ccc3oc(-c4cccnc4)nc3c2)c1,1.4,4.6%&4.0%,-6.9%,0.2,-3.1%,8.6%&3.3%,-7.6%
C/C(=N\NC(=S)NCc1ccccc1)c1cccc(Br)c1,-2.9,.,3.2%[15.4 µM],-5.7,1.8%,7.1%,-25.1%
O=C(COc1ccc(Br)cc1)Nc1ccc(NC(=O)c2ccccc2)cc1,-2.4,-6.9%,1.4%,3.0,4.5%,?,4.3%
Cc1cccc(NC(=S)N/N=C/c2cccc([N+](=O)[O-])c2)c1,-5.2,1.3%,9.8%,-1.1,7.0%,2.7%,-1.2%
